NPYLR7 ag: mosquito NPYLR7 agonism; HEK293T NPYLR7/Galpha15, GCaMP6s calcium fluorescence; 270,000 compounds, 0.15% hits; activation, % at 10 µM; in the data active = activation above about 40%;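 note: 0% = vehicle and 100% = reference agonist at the receptor; some compounds past the cut are filed as inactive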
NPYLR7 ag max-min: also measured in NPYLR7 ag; calls as there; activation, %; measured here: Max-Min RFU normalised activation; some inactives read as strong as hits;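 span of the calcium signal over five minutes; 0% = vehicle and 100% = native peptide agonist; compound fluorescence can raise it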
* marks the source's active call; other numbers are inactive results; & = joins results of further samples.

compound | NPYLR7 ag | NPYLR7 ag max-min
CC(C)c1nn(-c2ccccc2Cl)c(C(C)C)c1C(=O)O | 9.4 | 18.7
O=C(Nc1ccccc1OCc1cscn1)C(O)c1ccccc1 (stereo unspecified) | 3.7 | 1.5
CSC1=C(C#N)C2(CCCCC2)C(C#N)C(=O)N1 (stereo unspecified) | -1.3 | -3.1
CCOC(=O)c1nn(-c2ccccc2C)c(=O)cc1N1CCN(C(=O)c2ccco2)CC1 | 6.3 | 2.4
COC(=O)c1cc2c(nc1N)CCC2 | -1.4 | 3.2
O=C(O)C1Nc2ccc(Br)cc2C2C=CCC12 (stereo unspecified) | 1.2 | 1.8
O=C(N1Cc2cnn(CCO)c2C1)C1(N2CCOCC2)CCCCC1 | -0.1 | -1.9
CCn1ncc(CN2CCCC(C(=O)c3cccc(C(F)(F)F)c3)C2)c1C (stereo unspecified) | 11.1 | 2.8
CCn1cc(CN2CCCN(c3ccnc(C)c3)CC2)cn1 | 0.4 | 1.5
O=C(CSc1nnnn1CC1CCCO1)NCc1ccc2c(c1)OCO2 (stereo unspecified) | -1.8 | -2.3

The listing continues:
compound | NPYLR7 ag | NPYLR7 ag max-min
Cc1cc(NC(=O)C(=O)N2CC[C@@](C)(O)[C@@H](CC(C)C)C2)no1 | -3.1 | -7.6
CN(Cc1ccc2c(c1)OCCO2)Cc1cc(-c2ccccc2)no1 | 2.0 | 1.0
CC(C)Cc1cnc2c(c1SCC(=O)N1CCc3ccccc31)c(=O)n(C)c(=O)n2C | 7.7 | 10.5
COCCN1CCCC1CNC(=O)CCCc1ccccc1 (stereo unspecified) | -0.3 | -1.9
Cc1cc(O)c(C2OC(=O)c3ccccc32)c(=O)n1Cc1ccccc1 (stereo unspecified) | -4.6 | -7.8
CCOc1ccccc1NC(=O)N(Cc1cccc(OS(=O)(=O)c2ccc(F)cc2)c1)C(C)CC (stereo unspecified) | -16.6 | -16.2
CC(C)(C)c1cc(N2CCCC2)nc(SCc2ccc(C(=O)NCc3cccnc3)cc2)n1 | 5.7 | 4.8
CC(=O)Nc1sc(C)c(C)c1C(=O)OCC(=O)NC(C)C12CC3CC(CC(C3)C1)C2 (stereo unspecified) | 8.7 | 7.9
COc1cc(C=C(C#N)S(=O)(=O)c2ccc(C)cc2)cc2c1OCCO2 | -7.3 | -9.1
CCOC(=O)CCC(=O)N1CCc2cc(OC)c(OC)cc2C1c1cccc(C(F)(F)F)c1 (stereo unspecified) | -8.5 | -10.2

Further structures:
compound | NPYLR7 ag | NPYLR7 ag max-min
CCn1ccnc1CN1CCc2[nH]cnc2C1c1cccn1-c1ncccn1 (stereo unspecified) | 0.2 | -6.4
CCC(=O)N(Cc1c(-c2cccc(C)c2)noc1N1CCOCC1)C1CC1 | -0.6 | 7.6
CCOC(=O)C1CCN(C(=O)c2ccc(CSc3nc(CC)cc(N4CCN(Cc5ccccc5)CC4)n3)o2)CC1 | 9.7 | 11.8
CCOc1ccc(C(C2Sc3nc(C)nn3C2=O)N2CCc3ccccc3C2)cc1OC (stereo unspecified) | -7.4 | -12.1
COc1ccc(Oc2cc(N3CCOCC3)ncn2)cc1 | -9.5 | -5.6
O=C(OCc1c(Cl)cccc1Cl)c1cccs1 | 3.4 | 7.8
CCC(C)C(NC)C(=O)O (stereo unspecified) | -2.1 | -7.8
Cc1nnc(NC(=O)C2CCN(S(=O)(=O)c3cc(C(F)(F)F)ccc3Cl)CC2)o1 | -0.6 | -0.4
O=C(NCCCC(=O)N1CCN(Cc2ccc(-c3noc(-c4cccc(C(F)(F)F)c4)n3)cc2)CC1)OCc1ccccc1 | 14.6 | 9.0
CCOC(=O)NC(=S)NN1CCN(NC(=S)NC(=O)OCC)CC1 | -2.3 | -4.2

Additional entries
compound | NPYLR7 ag | NPYLR7 ag max-min
COc1cccc(CN2CCN(Cc3cccc4cnccc34)CC2=O)c1 | 23.6 | 17.5
CN(CCO)c1nc(N)c2c(N)nc3c(c2c1C#N)CC(=O)N3CCC1=CCCCC1 | -5.0 | -7.1
COc1ccc(-c2noc(-c3nnn(-c4cc(Cl)c(OC)cc4OC)c3C)n2)cc1 | 2.6 | -3.3
CON(C)C(=O)c1ccc(C)c(NC(C)=O)c1 | 13.1 | 10.5
CCC(=O)NNS(=O)(=O)c1ccc2ccccc2c1 | -16.5 | -26.2
COCC(=O)N1CCN2C(=O)[C@@H]3C[C@@H](OCc4ccc(F)cc4)CN3C(=O)[C@@H]2C1 | -9.2 | -16.0
CN(c1ccccc1)N1CC(C(=O)NCC2CCCCC2)CC1=O (stereo unspecified) | -2.0 | -3.7
O=C(CSCc1ccccc1Cl)NCc1ccsc1 | 18.9 | 9.1
CC(C)NC(=O)CSc1ncnc2c1cnn2-c1ccc(F)cc1 | 21.0 | 8.1
Cc1nc(C(=O)NCc2nc(-c3ccccc3NC(=O)CC3CCCC3)oc2C)cs1 | 23.8 | 15.3

(further entries)
compound | NPYLR7 ag | NPYLR7 ag max-min
CCN1C(=O)c2cc(NS(=O)(=O)CC(C)C)ccc2Oc2ccccc21 | 5.3 | 3.6
CC(Nc1ccc(F)c(Cl)c1)C(=O)Nc1ccc(S(N)(=O)=O)cc1 (stereo unspecified) | 14.3 | 8.5
COc1ccccc1C1=NOC(CN(Cc2cccc(Cl)c2)C(=O)c2cccs2)C1 (stereo unspecified) | 0.7 | 6.7
CCN(CC)C(=O)[C@@H]1C[C@@H](N)CN1C(=O)c1csc(-c2cccs2)n1 | 5.2 | 4.4
Cc1nonc1CC(=O)N1CCc2ccc(NC(=O)C3CCCO3)cc2C1 (stereo unspecified) | 9.6 | 6.1
CC1=CC[C@@H]2CN(C(=O)c3cccc4cc[nH]c34)C[C@@H]2C1 | 1.1 | -1.1
Cc1ccc2[nH]c3c(c2c1)CCCC3NCc1ccccc1 (stereo unspecified) | -6.9 | -6.1
CC1CCC(C(C)C)C(OCC(O)CNC(C)C)C1 (stereo unspecified) | -4.0 | -5.0
Cc1ccccc1-n1c(Cc2ccccc2)nnc1SCc1ccc(C(=O)N2CCOCC2)cc1 | 15.2 | 14.8
CCN(CC)C(=O)C1(C)CCN1C(=O)c1cccc(F)c1 (stereo unspecified) | 0.7 | 0.7

Further compounds:
compound | NPYLR7 ag | NPYLR7 ag max-min
COc1ccc(C(=O)Nc2nc3ccccc3s2)cc1[N+](=O)[O-] | -3.6 | -3.6
O=C1CCNC2(CCCCC2)N1O | 5.9 | 0.5
Cc1ccc(-c2nnc(SCCCCC(=O)NCCc3ccc(Cl)cc3Cl)n2-c2ccc(Cl)c(Cl)c2)cc1 | 25.0 | 16.4
CCOC(=O)[C@H]1[C@@H](O)C(=O)N(C)C12CCN(S(=O)(=O)c1cccs1)CC2 | 22.7 | 18.9
O=C(Cc1cccs1)N1CCc2c(c(C(=O)N3CCOCC3)nn2CCCc2ccccc2)C1 | 14.0 | 0.5
CCC(OC)C(=O)C(C#N)c1nc(-c2c(F)cccc2F)cs1 (stereo unspecified) | 8.8 | 4.8
Cc1cc(C)c[n+](C(C)C(=O)c2ccc(Cl)cc2)c1 (stereo unspecified) | -11.9 | -15.5
O=C(C(c1ccccc1)n1cccn1)N1CCc2ccccc2C1 (stereo unspecified) | 0.6 | 1.0
CCOC(=O)c1cnc(C(=O)NCc2ccnn2C)c(Cl)c1 | 2.6 | 17.1
OC(CN1CCOCC1)c1ccc(-c2ccc(-c3ccn[nH]3)cc2)cc1 (stereo unspecified) | 17.3 | 7.4

The listing continues:
compound | NPYLR7 ag | NPYLR7 ag max-min
Cc1nc(SC(C)c2nc3sc(C)c(C)c3c(=O)[nH]2)n(C2CCCC2)c1C (stereo unspecified) | -0.1 | 2.9
CCOC(=O)CCC(=O)N1CCN(c2ccc(-c3cc(C(=O)OCC)nn3-c3ccccc3Cl)cc2)CC1 | 5.6 | 0.7
COc1cc2c(cc1OC)C(CNC(=O)Cc1ccccc1)N(C(=O)Nc1cccc(F)c1)CC2 (stereo unspecified) | 3.4 | 4.9
CC(C)CN(Cc1c(-c2ccccc2)nn(C)c1Oc1ccccc1F)CC(O)Cc1ccccc1 (stereo unspecified) | -0.1 | 2.3
Cc1ccsc1CN(Cc1ccc2c(c1)OCO2)C(=O)CN(C(=O)CCc1ccccc1)C1CCCCC1 | -6.0 | -14.1
N#Cc1c(N)n(-c2ccc(S(N)(=O)=O)cc2)c2nc3ccccc3nc12 | 6.6 | 11.9
CCOc1ccc(OCC(=O)OCn2c(SC)nnc(C)c2=O)cc1 | -0.3 | -3.1
Cc1ccc(C)c(NCN2C(=O)C3CC=CCC3C2=O)c1 (stereo unspecified) | 1.3 | -0.2
CCCCCC1(C)C2SCC(=O)N2CCN1CC(=O)NN (stereo unspecified) | 1.7 | -1.3
COc1ccc(C(=O)N2CCC(C(=O)c3ccc4c(c3)OCCO4)CC2)c(OC)c1OC | 3.4 | -3.7

Next compounds follow:
compound | NPYLR7 ag | NPYLR7 ag max-min
CN1CCCC1CCn1ccnc1-c1cc(C(C)(C)C)[nH]n1 (stereo unspecified) | -8.4 | -11.2
CN(C(=O)CN1CCN(c2cc(-c3ccccc3Oc3ccccc3)ncn2)CC1)c1ccccc1 | 26.7 | 21.0
Cc1nc(C)c(C(=O)NCc2cc(-c3ccc4c(c3)CC(C)O4)on2)s1 (stereo unspecified) | -0.5 | -2.5
CC(C)COc1nc(-c2ccc3c(c2)OCO3)n(-c2ccc(NC(=O)CCc3ccccc3)cc2)n1 | 16.7 | 25.3
Cc1ccccc1C1CCCN1S(=O)(=O)NCc1ccccc1 (stereo unspecified) | -0.6 | 2.9
COCCNC(=O)C(NC(=O)c1ccc(OC)cc1)C1CCN(C(=O)CCc2ccccc2)CC1 (stereo unspecified) | 8.0 | 9.9
O=C(Cn1nc2c(c1NC(=O)c1ccc3c(c1)OCO3)CSC2)NCc1ccccc1 | -5.0 | 2.2
O=C(/C=C/c1ccc2c(c1)OCCO2)N(Cc1ccccn1)C1CC1 | 1.4 | -0.5
Cc1ccc(-c2cc(C(=O)NCc3nnc4n3CCC4)n[nH]2)s1 | 4.5 | -3.7
CCc1cccc2c(C(CC(=O)NCCCOC)c3ccccc3OC)c[nH]c12 (stereo unspecified) | 2.4 | 10.4

New compounds follow:
compound | NPYLR7 ag | NPYLR7 ag max-min
O=C(CC12CC3CC(CC(C3)C1)C2)OCC(O)CN1CCOCC1 (stereo unspecified) | 9.6 | 4.9
Cc1cc(NC(=O)CSc2nnc(-c3ccco3)n2C)no1 | 12.3 | 12.0
CCCN(CC(=O)Nc1cc(C(C)(C)C)nn1-c1ccc(C)cc1)C(=O)Nc1ccc(C)cc1 | -0.4 | 12.1
Cc1nn(-c2ccccc2)c(C)c1P(=O)(c1ccccc1)N(C)C (stereo unspecified) | 5.4 | 15.1
Cc1nc2sccn2c(=O)c1NC(=O)c1ccc2ccccc2n1 | -8.1 | -6.5
Cc1cc(C(=O)OCC(=O)NCc2ccco2)ccc1N1CCNC1=O | 7.7 | 4.2
CC#CC(=O)N1CCC(CCc2ccccc2)(C(=O)OCC)CC1 | 3.2 | 11.5
CCc1nc2ccc(C(=O)NCc3ccc(N(C)C)cc3)cn2c1N(C)Cc1nccn1C | -2.6 | -6.9
CS(=O)(=O)c1ccc(C(=O)Nc2cnc3n2CCCC3)cc1 | 19.1 | 17.6
CCn1c(N/N=C\c2ccc(F)cc2)nc2c1c(=O)[nH]c(=O)n2C | -1.5 | -3.2

(more compounds)
compound | NPYLR7 ag | NPYLR7 ag max-min
COc1ccc(/C=C/C(=O)N2CCCC(Nc3ccc4c(c3)OCCO4)C2)cc1OC (stereo unspecified) | 7.5 | 4.1
NS(=O)(=O)c1ccc(CNc2ncccc2C(=O)O)cc1 | 9.7 | 5.4
O=C(CN1CCN(C(=O)C2CCCO2)CC1)Nc1ccc(-c2ccccc2)cc1 (stereo unspecified) | 10.5 | 3.7
CNC(=S)NN=Cc1ccc(F)cc1F | 2.5 | 9.8
O=C(CC1C(=O)NCCN1CC1CCCCC1)NCCc1cnccn1 (stereo unspecified) | 14.1&-0.9 | 4.8&-3.0
CSc1nnc(SCC(=O)N2CCN(CC=Cc3ccccc3)CC2)s1 | 1.1 | 4.0
O=C(NCCS(=O)(=O)N1CCc2ccccc2C1)c1ccccc1S(=O)(=O)C(F)F | 9.6 | 3.9
Fc1ccc(/C=N\N2CCCCC2)c(F)c1 | 18.3 | 14.5
CC(Cc1cccc(Cl)c1)NC(=O)C1CC(=O)N(C2CC2)C1 (stereo unspecified) | 1.7 | 1.5
COc1cccc(OC)c1CC(=O)N(C)c1ccc2ccccc2n1 | 6.4 | 3.1

(more compounds)
compound | NPYLR7 ag | NPYLR7 ag max-min
COCCCN(CC(=O)N(CCc1c[nH]c2ccccc12)Cc1ccccc1)C(=O)Cc1ccc(OC)cc1 | 20.3 | 28.5
O=C(NCc1ccc(-c2ccc(F)cc2)o1)c1cccnc1 | 4.7 | 2.8
Cc1ccc(C)c(S(=O)(=O)N2CC3(C)CC2CC(C)(C)C3)c1 (stereo unspecified) | -6.2 | -5.8
Nc1nc(NCc2ccccc2)nc(-c2ccccc2CO)n1 | -3.5 | -6.5
CN(Cc1csc(-c2ccccc2)n1)C(=O)c1c(O)cccc1O | -11.3 | -10.9
COCCN(Cc1ccsc1)C(=O)c1ccc2cccc(F)c2n1 | -7.2 | -17.7
COc1cc(=O)n(-c2ccccc2)nc1C(=O)Nc1ccccc1C(N)=O | 4.1 | 3.1
Cc1ccc(-n2c(=O)c3ccccc3n(Cc3ccc(C(=O)NC4CC4)cc3)c2=O)cc1C | -1.0 | 3.8
Cc1cc(C(=O)N2CCC(O)(CN(C)C)C2)sc1-c1ccccc1 (stereo unspecified) | 10.4 | 8.7
NC(=O)c1ccc2nc(-c3ccc(Oc4ccc(Cl)cc4)cc3)[nH]c2c1 | -5.5 | -10.2
COc1cc(N2CCN(CCc3ccccc3)CC2)ncn1 | 10.7 | 7.4
COc1ccc(CNC(=O)c2cn(Cc3ccc(S(=O)(=O)N(C)C)cc3)c(=O)s2)cc1 | 13.4 | 5.3
OCC1(CCc2ccccc2)CCN(c2nccc3occc23)CC1 | -3.2 | 4.4

Source: PubChem

The list is partial; the hit share may differ from the screen's.
